Env fusion inh: inhibitors of HIV-1 Env-driven cell-cell fusion, primary screen, HeLa-JRFL effector, CEM21 target cells, luciferase; inhibition, % at 12.3 µM; hit rate 1.1% among 360,000;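 active = mean replicate inhibition score of at least 50 and every replicate individually at or above 50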;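 note: 0% = plate neutral controls and 100% = maraviroc near 300 nM; one replicate is shown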
UUG fidelity: modulators of yeast start codon fidelity, primary screen, whole organism, S. cerevisiae, single point, plate reader; S. cerevisiae UUG-firefly luciferase reporter, luminescence/redox ratio; AID 602363, 2012; hit rate 0.13% among 350,000; activity score, % at 18.7 µM;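 active = replicate mean at a twofold rise or more, about +100% in these data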;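 note: firefly luciferase made from a UUG start codon reports start codon fidelity; reporter light over untreated wells divided by growth signal over untreated wells; some hits fall short of that in this replicate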
The depositor's hits bear a star; [ ] = dose if it differs, or a comment. The list is partial; rates above refer to the full screens.

SMILES | Env fusion inh | UUG fidelity
Cc1ccc(S(=O)(=O)N(C)C[C@H]2Oc3ncc(-c4ccncc4)cc3C(=O)N([C@@H](C)CO)C[C@@H]2C)cc1 | 9[16.7 µM] | 7
C[C@H]1CN([C@@H](C)CO)C(=O)c2cc(C#CC3CC3)cnc2O[C@@H]1CN(C)C | -13[16.7 µM] | -8
C[C@H](CO)N1C[C@H](C)[C@@H](CN(C)Cc2ccncc2)Oc2ccc(NC(=O)C3CC3)cc2C1=O | -4[16.7 µM] | -14
COCC#Cc1cnc2c(c1)C(=O)N([C@@H](C)CO)C[C@H](C)[C@@H](CN(C)S(=O)(=O)c1ccccc1)O2 | 13[16.7 µM] | -2
C[C@H]1CN([C@@H](C)CO)C(=O)c2cccc(NS(=O)(=O)c3cn(C)cn3)c2O[C@H]1CN(C)CC1CCCCC1 | -9[16.7 µM] | 5
COc1ccc(NC(=O)N(C)C[C@H]2OCCCC[C@@H](C)Oc3ccc(NS(=O)(=O)c4ccc(OC)cc4)cc3C(=O)N([C@H](C)CO)C[C@@H]2C)cc1 | -48[16.7 µM] | -7
C[C@H]1CN([C@@H](C)CO)C(=O)Cc2cc(NC(=O)Cc3ccccc3)ccc2O[C@@H]1CN(C)S(C)(=O)=O | 5[16.7 µM] | 8
C[C@@H]1CCCCO[C@@H](CN(C)S(=O)(=O)c2cccs2)[C@H](C)CN([C@H](C)CO)C(=O)c2cc(NS(=O)(=O)c3ccc(F)cc3)ccc2O1 | 20[16.7 µM] | 19
C[C@@H]1CN([C@H](C)CO)C(=O)c2cccc(NC(=O)c3ccncc3)c2O[C@@H]1CN(C)Cc1ccncc1 | -10[16.7 µM] | -7
CO[C@@H]1CN(C)C(=O)c2ccc(NC(=O)C3CCC3)cc2OC[C@H](C)NC[C@H]1C | 12[16.7 µM] | -27
O=C(C[C@@H]1CC[C@@H](NC(=O)Nc2ccc3c(c2)OCO3)[C@@H](CO)O1)NCc1ccc2c(c1)OCO2 | 19[16.7 µM] | -6
Cn1cnc(S(=O)(=O)N2C[C@@H](O)COC[C@H]3O[C@H](CC(=O)N4CCN(c5ccccc5)CC4)CC[C@@H]32)c1 | 0[16.7 µM] | -6
CO[C@H]1CN(C)C(=O)c2cc(NS(C)(=O)=O)ccc2OC[C@@H](C)N(CC2CCOCC2)C[C@@H]1C | -5[16.7 µM] | -23
CCNC(=O)Nc1ccc2c(c1)C(=O)N(C)[C@@H]1CC[C@@H](CC(=O)NCc3cccc(F)c3)O[C@@H]1CO2 | 7[16.7 µM] | -13
C[C@H]1CN([C@@H](C)CO)C(=O)c2cccc(NC(=O)c3nc4ccccc4s3)c2O[C@@H]1CN(C)Cc1ccc(Oc2ccccc2)cc1 | 16[16.7 µM] | -30
COc1ccc(NC(=O)Nc2ccc3c(c2)C(=O)N([C@@H](C)CO)C[C@@H](C)[C@@H](CN(C)S(=O)(=O)c2ccc(OC)cc2)OCCCC[C@@H](C)O3)cc1 | -34[16.7 µM] | -16
C[C@@H]1CCCCO[C@@H](CN(C)C(=O)C2CCCCC2)[C@H](C)CN([C@H](C)CO)C(=O)c2cc(NC(=O)Nc3ccccc3)ccc2O1 | 5[16.7 µM] | 11
CCCC#Cc1ccc2c(c1)O[C@H](CN(C)C(=O)c1cccnc1)[C@@H](C)CN([C@@H](C)CO)S2(=O)=O | -25[16.7 µM] | -5
CCC(=O)N(C)C[C@@H]1Oc2cc(C#CCC(C)C)ccc2S(=O)(=O)N([C@H](C)CO)C[C@@H]1C | 23[16.7 µM] | 20
C[C@@H]1CN([C@H](C)CO)C(=O)c2cc(-c3ccc(F)cc3)cnc2O[C@@H]1CN(C)C(=O)Cc1ccccc1 | -6[16.7 µM] | 48
C[C@@H]1CCCCO[C@@H](CN(C)C(=O)NC2CCCCC2)[C@@H](C)CN([C@H](C)CO)C(=O)c2cc(NC(=O)NC3CCCCC3)ccc2O1 | 1[16.7 µM] | 4
C[C@H]1CN([C@@H](C)CO)C(=O)c2cc(NS(=O)(=O)c3cccs3)ccc2O[C@@H]1CN(C)Cc1ccc(Cl)c(Cl)c1 | 17[16.7 µM] | 10
COc1ccc(S(=O)(=O)N(C)C[C@@H]2Oc3c(NS(=O)(=O)c4ccc(Cl)cc4)cccc3C(=O)N([C@@H](C)CO)C[C@H]2C)cc1 | -37[16.7 µM] | -6
CO[C@@H]1CN(C)C(=O)c2cc(NC(=O)NC(C)C)ccc2OC[C@H](C)N(C(=O)NC(C)C)C[C@@H]1C | -14[16.7 µM] | -17
C[C@H](CO)N1C[C@H](C)[C@@H](CN(C)C(=O)C2CCCCC2)Oc2ncc(Br)cc2C1=O | 10[16.7 µM] | 15
C[C@H](CO)N1C[C@H](C)[C@@H](CN(C)C(=O)Cc2ccccc2)Oc2ncc(-c3cncnc3)cc2C1=O | 9[16.7 µM] | -2
CC(C)c1cn(CC[C@H]2CC[C@H](NS(=O)(=O)c3ccc(Cl)cc3)[C@H](CO)O2)nn1 | 15[16.7 µM] | 9
CCCC#Cc1ccc2c(c1)O[C@H](CN(C)C(=O)C1CCC1)[C@H](C)CN([C@@H](C)CO)S2(=O)=O | 11[16.7 µM] | -2
COc1cccc(NC(=O)N[C@H]2CC[C@@H](CC(=O)N3CCOCC3)O[C@H]2CO)c1 | -14[16.7 µM] | 2
CC(C)NC(=O)N(C)C[C@@H]1Oc2ncc(C3=CCCCC3)cc2C(=O)N([C@H](C)CO)C[C@H]1C | -1[16.7 µM] | 18
C[C@H]1CN([C@@H](C)CO)C(=O)c2cc(NC(=O)Nc3ccc(F)cc3)ccc2O[C@H]1CN(C)CC1CCCCC1 | -22[16.7 µM] | 35
C[C@@H]1CN([C@H](C)CO)C(=O)c2cccc(NC(=O)c3ccc(-c4nccs4)cc3)c2O[C@@H]1CN(C)Cc1ccc(Cl)c(Cl)c1 | -77[16.7 µM] | 9
COc1ccc(S(=O)(=O)Nc2cccc3c2O[C@H](CN(C)Cc2ccc(C(=O)O)cc2)[C@@H](C)CN([C@@H](C)CO)C3=O)cc1 | 3[16.7 µM] | 6
Cc1ccc(S(=O)(=O)NCC[C@H]2CC[C@@H](NC(=O)C3CCOCC3)[C@H](CO)O2)cc1 | 8[16.7 µM] | -6
C[C@H](CO)N1C[C@H](C)[C@H](CN(C)C)Oc2cc(C3=CCCC3)ccc2S1(=O)=O | 25[16.7 µM] | 46
CC(C)NC(=O)N(C)C[C@H]1Oc2ncc(-c3cccc(C#N)c3)cc2C(=O)N([C@@H](C)CO)C[C@@H]1C | 0[16.7 µM] | -1
C[C@H]1CN([C@@H](C)CO)C(=O)c2cc(C#Cc3cccc(F)c3)cnc2O[C@@H]1CN(C)C(=O)c1ccccc1F | 27[16.7 µM] | -15
CNC(=O)C[C@@H]1CC[C@@H]2[C@H](COc3ccc(NC(=O)Nc4cc(C)cc(C)c4)cc3C(=O)N2C)O1 | 4[16.7 µM] | 3
C[C@@H]1CN([C@@H](C)CO)C(=O)Cc2cc(NC(=O)C3CCCCC3)ccc2O[C@@H]1CN(C)S(=O)(=O)c1cn(C)cn1 | -3[16.7 µM] | -3
C[C@@H]1CN([C@@H](C)CO)S(=O)(=O)c2ccc(C#Cc3ccncc3)cc2O[C@H]1CN(C)C(=O)C1CC1 | 2[16.7 µM] | -13
Cc1ccc(S(=O)(=O)Nc2ccc3c(c2)C(=O)N([C@H](C)CO)C[C@H](C)[C@H](CN(C)C(=O)c2ccccc2)OCCCC[C@@H](C)O3)cc1 | -11[16.7 µM] | 31
C[C@@H]1CN([C@H](C)CO)S(=O)(=O)c2ccc(C#CCC3CCCC3)cc2O[C@@H]1CN(C)C(=O)CC1CC1 | 10[16.7 µM] | -22
COc1ccc(NC(=O)Nc2ccc3c(c2)C(=O)N([C@H](C)CO)C[C@@H](C)[C@@H](CN(C)Cc2ccc(C(F)(F)F)cc2)O3)cc1 | 4[16.7 µM] | 13
C[C@@H]1CN([C@@H](C)CO)C(=O)c2cc(-c3cccnc3)cnc2O[C@@H]1CN(C)C(=O)c1cccc(F)c1 | -31[16.7 µM] | 6
COc1ccc(CN(C)C[C@H]2OCCCC[C@H](C)Oc3ccc(NS(=O)(=O)c4ccc(F)cc4)cc3C(=O)N([C@H](C)CO)C[C@@H]2C)cc1 | -16[16.7 µM] | 39

Quoted at random: three compounds from above
SMILES | Env fusion inh | UUG fidelity
C[C@@H]1CCCCO[C@@H](CN(C)C(=O)C2CCCCC2)[C@H](C)CN([C@H](C)CO)C(=O)c2cc(NC(=O)Nc3ccccc3)ccc2O1 | 5[16.7 µM] | 11
Cc1ccc(S(=O)(=O)NCC[C@H]2CC[C@@H](NC(=O)C3CCOCC3)[C@H](CO)O2)cc1 | 8[16.7 µM] | -6
C[C@H](CO)N1C[C@H](C)[C@@H](CN(C)C(=O)Cc2ccccc2)Oc2ncc(-c3cncnc3)cc2C1=O | 9[16.7 µM] | -2

Next part:
SMILES | Env fusion inh | UUG fidelity
C[C@@H]1CCCCO[C@@H](CN(C)C(=O)c2ccccc2)[C@@H](C)CN([C@@H](C)CO)C(=O)c2cc(NS(=O)(=O)c3ccc(Cl)cc3)ccc2O1 | -34[16.7 µM] | -14
CC(C)NC(=O)N[C@H]1CC[C@H](CC(=O)NCCN2CCCC2)O[C@H]1CO | 0[16.7 µM] | -9
Cc1noc(C)c1NC(=O)Nc1ccc2c(c1)C(=O)N([C@@H](C)CO)C[C@H](C)[C@H](CN(C)S(=O)(=O)c1cccs1)OCCCC[C@H](C)O2 | 70*[16.7 µM] | 7
COc1ccc(-c2ccc([C@@H]3[C@@H](C#N)N(C(=O)C4CCOCC4)[C@H]3CO)cc2)cc1 | -12[16.7 µM] | -4
C[C@@H]1CN([C@@H](C)CO)C(=O)c2cc(C#Cc3ccccc3)cnc2O[C@H]1CN(C)CC1CCOCC1 | -5[16.7 µM] | 97
C[C@H](CO)N1C[C@H](C)[C@H](CN(C)Cc2ccncc2)Oc2ncc(C#Cc3ccc(F)cc3)cc2C1=O | 9[16.7 µM] | -10
Cc1ccc(S(=O)(=O)N(C)C[C@H]2OCCCC[C@H](C)Oc3ccc(NC(=O)C4CCCCC4)cc3C(=O)N([C@@H](C)CO)C[C@H]2C)cc1 | 13[16.7 µM] | 6
C[C@H](CO)N1C[C@H](C)[C@@H](CN(C)Cc2ccncc2)OCCCC[C@H](C)Oc2ccc(NS(C)(=O)=O)cc2C1=O | 14[16.7 µM] | -4
COc1ccc(NC(=O)N(C)C[C@@H]2OCCCC[C@H](C)Oc3ccc(NC(=O)CCCN(C)C)cc3C(=O)N([C@H](C)CO)C[C@@H]2C)cc1 | 20[16.7 µM] | 10
CC(=O)N(C)C[C@H]1Oc2cc(-c3ccccc3F)ccc2S(=O)(=O)N([C@@H](C)CO)C[C@H]1C | 1[16.7 µM] | -6
C[C@@H]1CN([C@@H](C)CO)C(=O)c2cc(NS(=O)(=O)c3ccccc3)ccc2O[C@H]1CN(C)S(=O)(=O)c1cccs1 | 32[16.7 µM] | 12
COCCOC(=O)N1C(=O)[C@@]2(c3cc(C#CCNC(N)=O)ccc31)[C@H](C(=O)N1CCN(c3ncccn3)CC1)[C@H]1C(=O)O[C@H](c3ccccc3)[C@H](c3ccccc3)N1[C@@H]2c1ccccc1OCCO | -14[16.7 µM] | -7
C[C@H](CO)N1C[C@H](C)[C@H](CN(C)C(=O)C2CCOCC2)Oc2ncc(Br)cc2C1=O | 10[16.7 µM] | 2
CCCNC(=O)N(C)C[C@H]1Oc2ncc(-c3ccccc3F)cc2C(=O)N([C@H](C)CO)C[C@H]1C | -23[16.7 µM] | 4
O=C(C[C@H]1C=C[C@@H](NC(=O)c2ccc(F)cc2)[C@H](CO)O1)NCCc1ccccc1 | 5[16.7 µM] | -26

2 of the compounds above, as a markdown table.
| molecule | Env fusion inh | UUG fidelity |
| --- | --- | --- |
| C[C@H](CO)N1C[C@H](C)[C@@H](CN(C)C(=O)Cc2ccccc2)Oc2ncc(-c3cncnc3)cc2C1=O | 9[16.7 µM] | -2 |
| CC(C)c1cn(CC[C@H]2CC[C@H](NS(=O)(=O)c3ccc(Cl)cc3)[C@H](CO)O2)nn1 | 15[16.7 µM] | 9 |

Returning to the listing, repeating the two entries before the break.
SMILES | Env fusion inh | UUG fidelity
CCCNC(=O)N(C)C[C@H]1Oc2ncc(-c3ccccc3F)cc2C(=O)N([C@H](C)CO)C[C@H]1C | -23[16.7 µM] | 4
O=C(C[C@H]1C=C[C@@H](NC(=O)c2ccc(F)cc2)[C@H](CO)O1)NCCc1ccccc1 | 5[16.7 µM] | -26
O=C(C[C@@H]1C[C@@H]2c3cc(NC(=O)c4ccc5c(c4)OCO5)ccc3O[C@@H]2[C@@H](CO)O1)NC1CCCC1 | 11[16.7 µM] | -3
C[C@H]1CN([C@@H](C)CO)C(=O)Cc2cc(NS(=O)(=O)c3cn(C)cn3)ccc2O[C@H]1CN(C)C(=O)NC1CCCCC1 | 5[16.7 µM] | -17
Cc1noc(C)c1S(=O)(=O)N(C)C[C@H]1OCCCC[C@H](C)Oc2ccc(NC(=O)Cc3ccccc3)cc2C(=O)N([C@H](C)CO)C[C@H]1C | 2[16.7 µM] | 4
COc1ccc(S(=O)(=O)N(C)C[C@H]2Oc3ccc(NC(=O)C4CCCCC4)cc3CC(=O)N([C@@H](C)CO)C[C@@H]2C)cc1 | 10[16.7 µM] | 15
CO[C@@H]1CN(C)C(=O)c2cc(NS(=O)(=O)c3ccc(Oc4ccccc4)cc3)ccc2OC[C@H](C)NC[C@@H]1C | -9[16.7 µM] | 0
COc1ccc(NC(=O)Nc2ccc3c(c2)C(=O)N([C@H](C)CO)C[C@H](C)[C@@H](CN(C)S(=O)(=O)c2cn(C)cn2)OCCCC[C@H](C)O3)cc1 | -2[16.7 µM] | 7
C[C@H](CO)N1C[C@H](C)[C@@H](CN(C)C(=O)Cc2ccccc2)Oc2ncc(C#CCN(C)C)cc2C1=O | -7[16.7 µM] | 33
